GLA inh pH 4.5: qHTS Assay for Inhibitors of Human alpha-Galactosidase at pH 4.5; Alpha-galactosidase A (Homo sapiens), P06280; purified enzyme, 4-MU-alpha-Gal fluorescence, pH 4.5; activity change, negative = inhibition, % at 105 µM; 230,000 tested, under 10 active; AID 1467, 2008; inconclusive = small, poorly fitted or top-dose-only inhibition, or a rising curve; inactive = flat fitted curve, though single readings scatter; no compound was filed as active;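 also: 0% = full activity with enzyme and -100% = basal without enzyme; dose as in the result columns while the protocol names 77 µM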
Rango dissoc inh: qHTS Assay for Inhibitors of RanGTP induced Rango (Ran-regulated importin-beta cargo) - Importin beta complex dissociation. Biochemical FRET Rango-importin beta, RanGTP-induced dissociation. AID 540253, 2011. Potency, µM (series often up to 46.1 µM), for inactives: at the highest dose activity change, negative = inhibition. Snurportin-1 (Homo sapiens) + GTP-binding nuclear protein Ran (Homo sapiens) + Importin …. actives 0.071% (n = 340,000); active means falling FRET ratio curve, often poorly fitted, with flat reads before Ran was added; inconclusive means other falling curves, or compound fluorescence or quenching; inactive means flat or rising ratio curve;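 also: potency is read from the fitted curve at half-maximal effect; % of control where 0% means no effect; nearly all actives have a fitted effect of over 45% in size; -100% = wells without RanGTP and RCC1; the record marks most hits as doubtful in a second field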
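Rango (0.1 uM)–importin beta (0.25 uM) complex; RanGTP-RCC1 trigger; 45 min RT; CFP/YFP FRET read.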
Rango complex inh: qHTS Assay for Inhibitors of Rango (Ran-regulated importin-beta cargo) - Importin beta complex formation; Potency, µM (top dose mostly 92.2 µM), without a hit: at the highest dose inhibition of complex formation; Rango CFP/YFP FRET sensor + importin beta, 45 min; Importin subunit beta-1 (Homo sapiens), Q14974; AID 540263, 2011; actives 0.031% (n = 340,000); active = rising FRET ratio curve, often small or poorly fitted; inconclusive = mostly compound fluorescence or quenching in the first reads; inactive = flat curves in all reads;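 also: potency is read from the fitted curve at half-maximal effect; 0% = DMSO wells and 100% = buffer wells lacking importin beta; nearly all actives have a fitted effect of over 15% in size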
Target sequence (Q14974 whole entry, looked up): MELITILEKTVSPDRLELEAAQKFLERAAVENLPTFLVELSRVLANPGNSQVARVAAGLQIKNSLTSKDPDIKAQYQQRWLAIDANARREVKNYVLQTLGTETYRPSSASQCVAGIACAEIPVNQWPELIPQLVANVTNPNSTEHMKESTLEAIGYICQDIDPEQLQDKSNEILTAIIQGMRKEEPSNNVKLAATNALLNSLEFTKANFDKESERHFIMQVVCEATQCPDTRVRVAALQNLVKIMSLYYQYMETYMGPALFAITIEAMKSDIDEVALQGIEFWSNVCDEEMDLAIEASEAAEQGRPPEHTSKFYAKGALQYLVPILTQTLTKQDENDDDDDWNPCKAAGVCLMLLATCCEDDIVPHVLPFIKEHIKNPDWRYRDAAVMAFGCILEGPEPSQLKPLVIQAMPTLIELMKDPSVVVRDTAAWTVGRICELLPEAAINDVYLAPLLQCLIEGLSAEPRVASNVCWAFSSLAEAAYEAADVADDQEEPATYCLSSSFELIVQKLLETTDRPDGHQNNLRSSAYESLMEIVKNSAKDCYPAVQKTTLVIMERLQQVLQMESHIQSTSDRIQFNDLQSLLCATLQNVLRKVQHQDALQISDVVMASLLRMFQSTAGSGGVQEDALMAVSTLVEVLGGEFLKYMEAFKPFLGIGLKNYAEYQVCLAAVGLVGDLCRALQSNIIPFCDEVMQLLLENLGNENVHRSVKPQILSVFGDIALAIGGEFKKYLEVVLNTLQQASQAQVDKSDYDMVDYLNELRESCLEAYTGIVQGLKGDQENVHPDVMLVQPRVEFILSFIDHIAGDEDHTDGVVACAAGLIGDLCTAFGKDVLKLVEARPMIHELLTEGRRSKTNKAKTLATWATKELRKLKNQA
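Inhibition scored from the CFP 486 nm/YFP 530 nm FRET ratio 45 min after adding 0.125 microM importin beta to 50 nM Rango biosensor preincubated 5 min with compound (room temperature, PBS with DTT, Tween-20, BSA). No-importin wells as positive control.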
miR-21 reporter: qHTS Assay for Modulators of miRNAs and/orActivators of miR-21. 340,000 tested, under 10 active. HeLa miR-21 FLuc reporter, luciferase, 48 h. Potency, µM (doses to about 38.3 µM), without a hit: top-dose reporter change, positive = more light; active = well fitted rising curve with a large enough effect; inconclusive = small, poorly fitted or top-dose-only effect; inactive = no such curve, though single readings can be large or run the other way;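 also: % of control where 0% means no effect; miR-21 action dims this reporter so a rising signal means less miR-21 action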
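Luminescence from a firefly luciferase reporter carrying a miR-21 binding site downstream, stably expressed under a CMV promoter in HeLa cells that make miR-21 endogenously, reports miRNA modulation after 48 h compound exposure up to approximately 40uM final.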
Numbers without * were called inactive; ? = inconclusive; . = no result given; & = joins results of further samples; [ ] = dose if it differs, or a comment. This is a subset; count on the stated rates, not on these rows.

SMILES	GLA inh pH 4.5	Rango dissoc inh	Rango complex inh	miR-21 reporter
Cc1cc(C(=O)COc2ccc(Br)cc2F)c(C)n1C1CC1	.	-5%	0.1%	.
CCOC(=O)c1cccnc1NC(=O)c1ccccc1	-4	-4%	0.3%	-12%
Cc1[nH]c(C)c(S(=O)(=O)N2CCCCC2)c1C(=O)N1CCCC1	.	1%	-2.0%	0%
COC(=O)c1ccc(-c2cc(CC3(C(=O)OC)CCN(C(=O)OC(C)(C)C)CC3)on2)cc1	.	38%	-2.0%	-4%
COc1ccc(OC)c(NC(=O)NNS(=O)(=O)c2ccc(C)cc2C)c1	.	-1%	-3.3%	0%
O=C(Cn1cccc1C(=O)c1ccccc1)NCc1ccc2c(c1)OCO2	5	4%	-3.8%	-38%
CCCCOc1ccc(C(=O)Nc2ccc3c(c2)OCO3)cc1	0	-7%	2.5%	-38%
O=C(CCn1c(=O)sc2ccccc21)Nc1nc2ccccc2s1	0	1%	4.6%	-20%
O=C(NC(c1ccccc1)c1ccccc1)C1CCCO1 (centres undefined)	-2	-6%	-2.2%	-2%
Cc1cc(C)c(OCCN2C(=O)NC(C)(C)C2=O)c(Cl)c1	-4	0%	0.2%	0%
Cc1ccc(C(=O)NCC(=O)OC(C)C(=O)Nc2ccccc2[N+](=O)[O-])s1 (centres undefined)	.	-6%	-0.9%	.
CN(CC(=O)Nc1cccc(F)c1)C(=O)c1cc(S(=O)(=O)N2CCCCC2)ccc1N1CCOCC1	.	0%	-2.9%	.
COc1cc(-c2nnc(-c3ccccc3)o2)cc(OC)c1OC	1	-1%	0.8%	-8%
COc1cc(CN2CCNC(=O)C2CC(=O)NCCc2ncccc2C)cc(OC)c1 (centres undefined)	4	-17%	-2.5%	-2%
O=C(Nc1ccccc1N1CCCCC1)c1ccc(-c2cccc(Cl)c2)o1	-1	8%	-1.5%	1%
N#Cc1cc2ccccc2nc1N	?	-12%	0.5%	1%
Cc1ccc2nc(SCC(=O)N3CCN(c4ccccc4)CC3)[nH]c2c1	0	2%	-7.5%	-11%
CC1(C)C(=O)OC(/C=C/c2cccc([N+](=O)[O-])c2)C(C)(C)C1=O (centres undefined)	-3	6%	-3.9%	-3%
COc1ccc(C(=O)NC(=S)N(CCC(C)C)c2c(N)n(Cc3ccccc3)c(=O)[nH]c2=O)cc1	1	1%	-4.1%	-4%
COc1ccc(CCNC(=O)c2ccc([N+](=O)[O-])cc2Cl)cc1OC	.	-8%	-2.8%	.
CCc1ccc2[nH]c(=O)c(CN(CCN3CCCC3)C(=O)NC3CCCCC3)cc2c1	-12	20%	-0.2%	-12%
Cc1ccc(-c2csc3ncn(CC(=O)O)c(=O)c23)cc1C	.	-1%	2.6%	-3%
Cc1cc(C)c(S(=O)(=O)NCc2cccnc2)c(C)c1	.	4%	-2.4%	-1%
Cc1onc(-c2ccccc2Cl)c1C(=O)NNC(=O)c1ccccc1F	.	-3%	-1.9%	-10%
O=C(c1cccs1)N(Cc1ccco1)C1CCS(=O)(=O)C1 (centres undefined)	2	9%	-3.1%	-6%
Nc1ncnc2c1nc(SCCO)n2Cc1ccccc1	0[21.1 µM]	-6%	2.8%	-2%
CCOC(=O)c1[nH]c(C)c(C(=O)NC2CCN(C(=O)OCC)CC2)c1C	-6	1%	0.9%	-1%
c1ccc(CNc2ncnc3sccc23)cc1	.	0%	3.3%	17%
COc1ccc(NC(=S)N/N=C2\CC(C)(C)Oc3ccc(OC)cc32)cc1	5	0%	0.4%	-7%
CCN(CC)C(=O)CSc1nnc(-c2ccc(S(=O)(=O)N3CCOCC3)cc2)n1C	.	-1%	0.0%	1%
CCCCN1C(C(=O)Nc2cc(C)on2)=C(O)c2ccccc2S1(=O)=O	.	-6%	1.3%	-1%
O=C(CN1CCC(NC(=O)Nc2ccccc2-c2ccccc2)CC1)NCc1ccco1	-1	-17%	-3.9%	-5%
O=C(Nc1ccccc1N1CCN(C(=O)c2ccccc2)CC1)c1ccc2c(c1)OCO2	-6	-11%	-4.3%	-1%
Cc1ccc(S(=O)(=O)C2(C(=O)N(C)C3CCCCC3)CC2)cc1	6	1%	4.2%	-7%
Cc1ccc(S(=O)(=O)/N=C(/Nc2cccc(O)c2)c2ccccc2)cc1	.	-14%	-0.4%	-8%
COc1cc(/C=N/Nc2ccccc2)ccc1OC(=O)c1cccs1	0	-8%	5.7%	-22%
CC(C)(C)NC(=O)CN(CCN1CCOCC1)C(=O)CNS(=O)(=O)c1ccccc1	.	0%	7.6%	-3%
CCOc1ccc(Cl)cc1S(=O)(=O)N1CCC(C(=O)NC2CC2)CC1	.	13%	-2.1%	0%
O=C(CSCc1ccc(Cl)cc1Cl)Nc1c[nH]c(=O)[nH]c1=O	8	0%	2.6%	-7%
COc1ccc(-c2nn(-c3ccccc3)cc2C=O)cc1[N+](=O)[O-]	.	33%	5.5%	-9%
COc1ccc(C2C=C(c3ccccc3)Nc3ncnn32)cc1 (centres undefined)	-5	?	?	-12%
COc1cc(/C=N/NC(=O)NC23CC4CC(CC(C4)C2)C3)ccc1OCC(N)=O	.	5%	2.4%	-5%
C=C1[C@@H](CCO)N(S(=O)(=O)C(C)(C)C)C[C@@H]1C	.	-2%	3.2%	.
Cc1cccc(C)c1N(CC(=O)N1CCN(C)CC1)S(C)(=O)=O	1	-6%	-1.3%	-1%
Oc1ccc(Oc2ncc(Cl)cc2Cl)cc1	.	1%	-7.3%	-17%
Cc1nc2sccn2c(=O)c1S(=O)(=O)Nc1ccc(N2CCOCC2)c(Cl)c1	.	12%	1.2%	2%&11%
Cn1c(SCC(=O)NC(C)(C)C)nc(O)cc1=O	5	-10%	2.4%	11%
Cc1ccc(-c2cc([C@H]3[C@@H]4C=CCC[C@@]4(C)C(=O)N3Cc3ccccc3)ccc2F)cc1	-6	19%	-0.3%	13%
O=C(Nc1ccccc1C(=O)Nc1ccncc1)c1ccc([N+](=O)[O-])cc1	.	-1%	0.5%	-23%
O=S(=O)(Nc1ccc(Br)cn1)c1cccs1	4	1%	-4.8%	-2%
CC/C(=N/NC(=O)c1ccccc1O)c1c(C)[nH]n(-c2ccccc2)c1=O	.	?	?	.
Cc1cccc(NC(=S)Nc2cccc(C(F)(F)F)c2)n1	-2	-3%	-2.3%	-9%
O=C(Nc1ncn[nH]1)c1c(Cl)ccc(Cl)c1Cl	-8	0%	2.0%	-12%
CCOc1ccc(NC(=O)c2ccc(S(=O)(=O)N(C)C)cc2)cc1	1	-5%	-1.6%	2%
CC1(C)OC(=O)N2CCc3ccccc3C21C (centres undefined)	-4	-6%	-2.5%	-4%
C=CCCc1ccc(C#N)c(SCc2c(C(=O)OCC)c3cc(OC(C)=O)c(Br)cc3n2C)n1	-10	2%	1.5%	0%
COc1nc(Nc2cccc([N+](=O)[O-])c2)nc(OC)n1	-1	1%	3.5%	-5%
Oc1ccc(-c2nc3ccccc3s2)cc1	25	-5%	0.8%	-5%
Cc1ccsc1/C=N/Nc1ccc(F)cc1F	.	33%	-2.2%	-60%
Cc1cccc(Cn2c(C)nc3c(N)c(C)c(C)cc32)c1	-4	13%	5.7%	-2%
Remaining list, next part.
SMILES	GLA inh pH 4.5	Rango dissoc inh	Rango complex inh	miR-21 reporter
COc1ccc(N(CC(=O)NCC2CCCO2)S(=O)(=O)c2c(C)noc2C)cc1 (centres undefined)	6	24%	0.7%	-9%
OC(CNCc1ccccc1F)(c1ccc(F)cc1)c1ccc(F)cc1	-9	-14%	-1.7%	-3%
Cc1ccc2[nH]c(C)c(/C=C/c3cc[n+](C)cc3)c2c1	.	?	?	29%
O=C(COC(=O)CN1C(=O)c2ccccc2C1=O)Nc1cccc(F)c1	.	19%	1.9%	.
Cc1nc2nc(SCc3ccccc3)[nH]n2c(=O)c1C	.	-2%	0.0%	-10%
CC(C)C(=O)Nc1cccc(C(=O)Nc2cc([N+](=O)[O-])ccc2F)c1	-6	-15%	3.2%	0%
COc1cc(CNc2cc(C)ccc2C)cc(OC)c1OC	-1	10%	3.5%	9%
C=CCN1C(=O)S/C(=C\c2ccc3c(c2)n(C)c(=O)n3C)C1=O	-7	14%	?	-11%
COc1ccc(/C=N/NC(=O)c2ccc(Cl)cc2Cl)cc1COC(C)=O	-2	-6%	-1.6%	6%
O=C(NCCCn1ccnc1)c1ccc(Br)cc1	.	4%	2.6%	-21%
COC(=O)c1cccc(NC(=O)c2cc(OC)c(OC)c(OC)c2Br)c1	-6	-10%	-3.0%	5%
O=C(NCCNCCO)c1c(O)c2cccc3c2n(c1=O)CCC3	-4	1%	4.1%	1%
CCN(C(=O)COC(=O)c1nccnc1N)c1cccc2ccccc12	.	-5%	0.7%	.
CCC(=O)Nc1cccc(C2=NOC3(C2)C[C@@H](C(N)=O)N(C(=O)CC(c2ccccc2)c2ccccc2)C3)c1 (some centres undefined)	-1	11%	-4.2%	10%
COc1ccc(-c2cn(CCO)c(CCN)n2)cc1	.	0%	-1.5%	.
COC1CCCCC1Nc1cc(C)ccc1C (centres undefined)	5	0%	4.3%	-1%
C[C@H]1CN([C@@H](C)CO)C(=O)c2cccc(NC(=O)C3CC3)c2O[C@H]1CN(C)S(=O)(=O)c1ccccc1	.	-6%	0.5%	.
CCOCCCNC(=O)C(NC(=O)c1ccccc1O)c1ccc(Cl)cc1 (centres undefined)	0	12%	5.1%	-1%
COc1cc(NC(=O)c2cccnc2)ccc1NC(=O)c1ccccc1Cl	.	-14%	3.2%	-4%
O=C(Cn1c(=O)n(-c2ccccc2)c(=O)c2oc3ccccc3c21)Nc1ccccc1	-1	-24%	3.9%	-9%
O=C(CCN1CCN(c2ccc(Cl)cc2)CC1)Nc1nccs1	-2	0%	0.4%	-1%
Cc1cc(C)nc(OC(=O)c2c(Cl)cc(Cl)cc2Cl)n1	7	-8%	-1.4%	0%
CCC(C)(C)NC(=O)CSc1nc(Cc2ccccc2)nc2ccccc12	.	6%	0.3%	5%
COc1ccccc1NS(=O)(=O)c1cc(C(=O)N2CCCCCC2)ccc1C	.	-4%	1.7%	.
CCCSc1n[nH]c(NC(C)=O)n1	1	-14%	-1.3%	-8%
CC(C)NC(=O)NC(=O)COC(=O)C1CCCN1C(=O)c1cccs1 (centres undefined)	-2	43%	-3.9%	-1%
CCS(=O)(=O)N1CCC(NC(=O)C(Cc2cc(OC)ccc2OC)NC(C)=O)CC1 (centres undefined)	.	-12%	-1.2%	2%
Cn1c(SCC(=O)c2ccc(-c3ccccc3)cc2)nnc1-c1ccco1	-1	11%	5.0%	-13%
N#CC1=C(Nc2ccccc2)SC=C(c2ccccc2)N=C1N1CCOCC1	-2	?	?	-12%
Cn1c(=O)c2c(nc(NCc3ccco3)n2C)n(C)c1=O	1	-1%	2.0%	1%
CCNC(=O)c1ccc(NS(=O)(=O)c2ccccc2)cc1	7	-15%	-0.9%	-6%
COc1ccc(-c2nnc(-c3ccc4ccccc4c3)o2)cc1	.	-10%	0.8%	.
COc1cc2[nH]c(=O)n(Cc3ccc(C(=O)NCCCN4CCC(C)CC4)cc3)c(=O)c2cc1OC	-3	-14%	-0.1%	-1%
